PKD1 inh – inhibitors of human PKD1 kinase, biochemical, fluorescence polarization. Serine/threonine-protein kinase D1 (Homo sapiens), Q15139. PKD1 kinase fluorescence polarization assay. inhibition, %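 (about 10 µM by stock and volumes)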. hit rate 0.056% among 200,000;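 active = inhibition of 50% or more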;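 note: controls were vehicle for no effect and a reference inhibitor for full effect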
INS promoter inh – inhibitors of insulin promoter-driven GFP, primary screen, imaging, TRM-6 cells (human fetal islet line), eGFP reporter, cell count; AID 1273, 2008; hit rate 0.9% among 130,000; inhibition, % at 2 µM; reporter expression induced with tamoxifen;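 active = inhibition above the mean plus 3 SD, with well images judged a real hit on visual review, cut at about 60% in these data, passing the limit was not always enough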
GALR2 agonist – GALR2 receptor agonists, primary screen, cell-based; activation, %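 (tested at 5 µM)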; hit rate 0.48% among 140,000; Galanin receptor type 2 (Homo sapiens), O43603; GALR2-expressing cells, agonist activation read-out;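 active = above mean plus 3 SD of all compounds, about 5% in these data, not always enough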;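 note: 0% = vehicle buffer wells and 100% = reference agonist at full effect; tested in CHO reporter cells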
Target sequence (O43603 whole entry, looked up): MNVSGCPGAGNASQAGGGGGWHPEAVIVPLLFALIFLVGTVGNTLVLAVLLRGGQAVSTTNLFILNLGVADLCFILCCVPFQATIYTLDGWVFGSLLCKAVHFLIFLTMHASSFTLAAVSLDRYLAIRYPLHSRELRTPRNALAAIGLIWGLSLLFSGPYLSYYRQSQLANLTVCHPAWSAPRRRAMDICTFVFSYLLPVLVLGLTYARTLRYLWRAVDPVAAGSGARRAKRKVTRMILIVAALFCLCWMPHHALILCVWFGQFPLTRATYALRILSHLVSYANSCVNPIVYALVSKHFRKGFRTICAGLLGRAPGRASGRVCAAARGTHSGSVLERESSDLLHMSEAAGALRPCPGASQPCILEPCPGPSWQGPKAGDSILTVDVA
RGS16-Gao – modulators of RGS16 binding to Galphao, primary screen, biochemical, human proteins, multiplexed bead flow cytometry | bead-based flow cytometry RGS16-Galphao binding, fluorescence; actives lie on both sides | binding response (% of control), % at 10 µM | hit rate 0.38% among 220,000 | AID 1441, 2008;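 active = below 25% or above 175%, edge rows of some plates excepted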;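 note: Galphao activated by GDP with aluminum fluoride before binding; 100% = wells without compound and 0% = beads without RGS; some results beyond the cut were filed as inactive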
Target sequence (O15492 whole entry, looked up): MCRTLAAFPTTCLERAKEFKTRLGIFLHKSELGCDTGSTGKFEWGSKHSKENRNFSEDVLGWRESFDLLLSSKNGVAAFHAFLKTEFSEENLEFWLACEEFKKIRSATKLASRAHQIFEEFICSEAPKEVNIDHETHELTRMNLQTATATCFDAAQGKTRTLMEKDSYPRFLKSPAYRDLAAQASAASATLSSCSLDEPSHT
Target sequence (P09471 whole entry, looked up): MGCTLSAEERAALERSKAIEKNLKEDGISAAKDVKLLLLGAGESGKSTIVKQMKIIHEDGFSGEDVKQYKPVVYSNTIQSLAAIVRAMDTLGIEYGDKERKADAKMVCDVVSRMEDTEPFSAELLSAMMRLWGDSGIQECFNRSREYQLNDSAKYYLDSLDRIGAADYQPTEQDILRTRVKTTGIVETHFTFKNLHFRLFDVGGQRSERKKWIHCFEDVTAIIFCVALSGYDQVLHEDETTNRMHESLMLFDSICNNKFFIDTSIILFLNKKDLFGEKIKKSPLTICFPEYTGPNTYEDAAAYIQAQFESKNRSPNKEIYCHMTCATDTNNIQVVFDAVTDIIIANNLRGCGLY
HSV augment – enhancers of HSV replication in host cells, fold increase, host cell viability. HSV replication augmentation in cells. maximum fold increase. hit rate 0.005% among 220,000. AID 1956, 2009;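 active = peak rise of 1.5-fold or more in the series; tested in PC3 cells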;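 note: first round at 10 µM; read as green reporter fluorescence; hits show the peak of a series up to 25 µM; 1 = signal of infected wells without compound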
INS promoter inh cell count – also measured in INS promoter inh; calls as there; normalized cell count, %; measured here: cell count, toxicity; reference of the scale not given here;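 cells exposed to compound for 48 h; stained nuclei by imaging scaled within each plate; lower means fewer cells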
HSV augment primary fold – second read-out of HSV augment, no call of its own (marks repeat the call); fold increase; compound at 10 µM; measured here: primary screen fold increase 10 uM; tested in PC3 cells;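 GFP signal in the first replicate; 1 = infected wells without compound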
Numbers without * were called inactive. Compounds as they come. About 1.2% of those tested had a hit in this group.

Screening COc1cc(NC(=O)c2ccco2)c(C(=O)OCC(=O)c2c[nH]c3ccccc23)cc1OC returned PKD1 inh -2, INS promoter inh 14, GALR2 agonist 1.3, RGS16-Gao 117, HSV augment inactive, INS promoter inh cell count 86 and HSV augment primary fold 0.77.
Screening CCN1CCN(C(=O)c2cc3cc4ccc(OC)cc4nc3s2)CC1 returned PKD1 inh 8, INS promoter inh 41, GALR2 agonist 0.2, RGS16-Gao 94, HSV augment inactive, INS promoter inh cell count 71 and HSV augment primary fold 0.89.
For O=C(COc1cccc(Cl)c1)N/N=C\c1cc2ccccc2nc1Cl the results were PKD1 inh 4, GALR2 agonist -0.2, RGS16-Gao 100, HSV augment inactive and HSV augment primary fold 0.91.
COC(=O)c1sc2nc(-c3ccco3)ccc2c1N was read as PKD1 inh 3, INS promoter inh 64, GALR2 agonist -0.3, RGS16-Gao 97, HSV augment inactive, INS promoter inh cell count 38 and HSV augment primary fold 0.79.
`COc1ccc(N2CC(O)=C(c3nc(-c4ccc(Br)cc4)cs3)C2=N)cc1` gave PKD1 inh 5, RGS16-Gao 93, HSV augment inactive and HSV augment primary fold 0.76.
For COc1ccc(-c2[nH]ncc2CN(C)Cc2nonc2C)c(OC)c1 the results were PKD1 inh -6, RGS16-Gao 104, HSV augment inactive and HSV augment primary fold 0.89.
`CN(/N=C/C=C/c1ccccc1)c1cc(=O)n(C)c(=O)[nH]1` gave PKD1 inh -7, GALR2 agonist -1.7, RGS16-Gao 97, HSV augment inactive and HSV augment primary fold 0.97.
Screening c1ccc(-c2nnc(NC3=NCCC3)o2)cc1 returned PKD1 inh 0, RGS16-Gao 104, HSV augment inactive and HSV augment primary fold 1.
O=C(Nc1ccc(Cl)cc1)C1C2CCC3C(CCC21)C3(Cl)Cl (stereo not given) was read as PKD1 inh 7, INS promoter inh 10, GALR2 agonist -2.4, RGS16-Gao 102, HSV augment inactive, INS promoter inh cell count 135 and HSV augment primary fold 0.93.
For CCOc1ccccc1CN1C(=O)NC(C)(c2ccccc2)C1=O (stereo not given) the results were PKD1 inh -4, GALR2 agonist -1.8, RGS16-Gao 110, HSV augment inactive and HSV augment primary fold 0.87.
CCCCCn1c(CCC(=O)Oc2ccccc2OC)nc2c1c(=O)[nH]c(=O)n2CCCC was read as PKD1 inh -9, INS promoter inh -43, GALR2 agonist 0.3, RGS16-Gao 101, HSV augment inactive, INS promoter inh cell count 95 and HSV augment primary fold 0.89.
`CS(=O)(=O)N1CCC(C(=O)NCc2ccc(F)cc2Cl)CC1` gave PKD1 inh -6, GALR2 agonist 1.0, RGS16-Gao 100, HSV augment inactive and HSV augment primary fold 0.99.
Screening Cc1cc(Cl)ccc1OC(C)C(=O)NCCCCc1ccccc1 (stereo not given) returned PKD1 inh -3, INS promoter inh 10, GALR2 agonist -1.1, RGS16-Gao 96, HSV augment inactive, INS promoter inh cell count 80 and HSV augment primary fold 1.
For Cc1cccc(N(C(=O)Cn2nnc(-c3ccc(F)cc3)n2)C(C(=O)NC(C)(C)C)c2ccncc2)c1 (stereo not given) the results were PKD1 inh 3, INS promoter inh 52, RGS16-Gao 38, HSV augment inactive, INS promoter inh cell count 109 and HSV augment primary fold 1.1.
For CCOc1ccc(NC(=O)COc2nsnc2N2CCOCC2)cc1 the results were PKD1 inh -4, RGS16-Gao 82, HSV augment inactive and HSV augment primary fold 0.9.
`CCOc1ccc(S(=O)(=O)N2CCCCCC2)cc1` gave PKD1 inh 8, INS promoter inh -49, GALR2 agonist -0.4, RGS16-Gao 102, HSV augment inactive, INS promoter inh cell count 56 and HSV augment primary fold 0.95.
COC(=O)C1=C(C)NC(=O)/C1=C\c1cccs1 was read as PKD1 inh 11, INS promoter inh -22, GALR2 agonist -1.7, RGS16-Gao 120, HSV augment inactive, INS promoter inh cell count 73 and HSV augment primary fold 0.96.
Screening O=C(Cn1nc(C(F)(F)F)c2c1CCC2)NC1CCCCC1 returned PKD1 inh 12, INS promoter inh 8, GALR2 agonist -1.5, RGS16-Gao 109, HSV augment inactive, INS promoter inh cell count 115 and HSV augment primary fold 1.
For CCOC(=O)C1CCN(C(=O)Nc2ccc(C)c(Cl)c2)CC1 the results were RGS16-Gao 90, HSV augment inactive and HSV augment primary fold 0.89.
`CC1CC(Nc2cccc(O)c2)=CC(=O)O1` (stereo not given) gave PKD1 inh -1, INS promoter inh 40, GALR2 agonist -2.8, RGS16-Gao 101, HSV augment inactive, INS promoter inh cell count 72 and HSV augment primary fold 0.96.
Screening CCOc1ccc(S(=O)(=O)Nc2cc(OC)ccc2OC)cc1 returned PKD1 inh 14, INS promoter inh -49, GALR2 agonist -0.2, RGS16-Gao 102, HSV augment inactive, INS promoter inh cell count 12 and HSV augment primary fold 0.6.
`Cc1ccc(CN2CCN(C3CCOCC3)CC2CCO)cc1` (stereo not given) gave PKD1 inh -3, RGS16-Gao 96, HSV augment inactive and HSV augment primary fold 1.1.
`O=C/C(=C\Nc1ccc(Cl)cn1)c1nc2cc(Cl)ccc2o1` gave PKD1 inh 2, GALR2 agonist -0.9, RGS16-Gao 99, HSV augment inactive and HSV augment primary fold 1.
Screening O=c1[nH]c(-c2ccc(Cl)cc2)nc2c1cnn2-c1ccccc1 returned PKD1 inh -8, INS promoter inh -235, GALR2 agonist -1.8, RGS16-Gao 102, HSV augment inactive, INS promoter inh cell count 67 and HSV augment primary fold 0.96.
Screening CCn1c(C)nc2cc(C(=O)NNC(=O)CCC3CCCCC3)ccc21 returned PKD1 inh -5, INS promoter inh 13, GALR2 agonist 0.4, RGS16-Gao 97, HSV augment inactive, INS promoter inh cell count 117 and HSV augment primary fold 0.91.
For COc1ccc(C2C(C(=O)N3CCC(C)CC3)c3ccccc3C(=O)N2C)cc1 (stereo not given) the results were PKD1 inh -4, INS promoter inh -300, GALR2 agonist -1.8, RGS16-Gao 92, HSV augment inactive, INS promoter inh cell count 71 and HSV augment primary fold 0.86.
For COc1cccc(/C=N/NC(=O)CN2CC(c3ccccc3)CC2=O)c1OC (stereo not given) the results were PKD1 inh 0, INS promoter inh 29, GALR2 agonist 0.2, RGS16-Gao 102, HSV augment inactive, INS promoter inh cell count 122 and HSV augment primary fold 0.96.
Screening COC(=O)c1ccc2c(c1)NC1=C(C(=O)CC(C)(C)C1)C(c1ccncc1)N2 (stereo not given) returned PKD1 inh 0, INS promoter inh 12, GALR2 agonist -0.2, RGS16-Gao 107, HSV augment inactive, INS promoter inh cell count 64 and HSV augment primary fold 0.98.
Screening COc1ccc(Cc2noc(CN3CCCC(C(=O)c4cccs4)C3)n2)cc1OC (stereo not given) returned PKD1 inh 3, RGS16-Gao 98, HSV augment inactive and HSV augment primary fold 1.
For CCOc1cc(N2CCOCC2)c(OCC)cc1NC(=O)Cn1cnc2c(=O)n(C)c(=O)n(C)c21 the results were PKD1 inh 3, INS promoter inh -27, RGS16-Gao 97, HSV augment inactive, INS promoter inh cell count 80 and HSV augment primary fold 1.

Among those listed so far, 2 have a furan ring, fused or not.
Screening COc1cc(NC(=O)c2ccco2)c(C(=O)OCC(=O)c2c[nH]c3ccccc23)cc1OC returned PKD1 inh -2, INS promoter inh 14, GALR2 agonist 1.3, RGS16-Gao 117, HSV augment inactive, INS promoter inh cell count 86 and HSV augment primary fold 0.77.
COC(=O)c1sc2nc(-c3ccco3)ccc2c1N was read as PKD1 inh 3, INS promoter inh 64, GALR2 agonist -0.3, RGS16-Gao 97, HSV augment inactive, INS promoter inh cell count 38 and HSV augment primary fold 0.79.

Other results:
For CC1SCC(=O)N(CC(=O)NCCc2ccccc2)C1=O (stereo not given) the results were PKD1 inh -5, INS promoter inh -22, RGS16-Gao 105, HSV augment inactive, INS promoter inh cell count 92 and HSV augment primary fold 0.97.
Screening COc1ccc(-c2c(C(C)=O)c(C)n(C)c2C)cc1 returned PKD1 inh -5, INS promoter inh 0, GALR2 agonist -0.6, RGS16-Gao 99, HSV augment inactive, INS promoter inh cell count 66 and HSV augment primary fold 1.1.
`O=C(Nc1ccc2nc(C3CC3)n(Cc3ccc(F)cc3)c(=O)c2c1)c1ccco1` gave PKD1 inh -11, GALR2 agonist -2.7, RGS16-Gao 101, HSV augment inactive and HSV augment primary fold 0.83.
Cc1ccc(-c2csc(NC(=O)C3CC(=O)N(Cc4ccco4)C3)n2)cc1 (stereo not given) was read as PKD1 inh 1, INS promoter inh 19, RGS16-Gao 105, HSV augment inactive, INS promoter inh cell count 109 and HSV augment primary fold 1.
CCC(=O)OCC(=O)Nc1ccc([N+](=O)[O-])cc1OC was read as PKD1 inh 0, INS promoter inh 29, RGS16-Gao 96, HSV augment inactive, INS promoter inh cell count 68 and HSV augment primary fold 0.92.
O=C(NNS(=O)(=O)c1ccc(Cl)cc1)NC1CCCCC1 was read as PKD1 inh 4, INS promoter inh -4, GALR2 agonist -3.1, RGS16-Gao 100, HSV augment inactive, INS promoter inh cell count 131 and HSV augment primary fold 0.85.
C=CCNC(=O)c1cc(Cl)ccc1[N+](=O)[O-] was read as PKD1 inh -10, INS promoter inh -11, GALR2 agonist -0.2, RGS16-Gao 102, HSV augment inactive, INS promoter inh cell count 150 and HSV augment primary fold 0.97.
For O=C(Nc1cccc(-c2nc3ccccc3o2)c1)c1cccnc1 the results were PKD1 inh 4, INS promoter inh -33, RGS16-Gao 104, HSV augment inactive, INS promoter inh cell count 71 and HSV augment primary fold 0.88.
Cc1ccc(NC(=S)NC(NC(=O)c2ccccc2C)C(Cl)(Cl)Cl)c(C)c1 (stereo not given) was read as PKD1 inh -7, INS promoter inh 3, GALR2 agonist -1.1, RGS16-Gao 106, HSV augment inactive, INS promoter inh cell count 59 and HSV augment primary fold 0.91.
Screening COc1ccc(CNc2nc3nc(C)c(Cl)c(C)n3n2)cc1 returned RGS16-Gao 98, HSV augment inactive and HSV augment primary fold 1.
`COc1cccc(Oc2ccc(C(F)(F)F)cc2N)c1` gave PKD1 inh 3, GALR2 agonist -0.6, RGS16-Gao 101, HSV augment inactive and HSV augment primary fold 1.
Screening C=C(C)c1cccc(C(C)(C)NC(=O)Nc2ccccc2OCC)c1 returned PKD1 inh 0, INS promoter inh -14, GALR2 agonist -1.0, RGS16-Gao 108, HSV augment inactive, INS promoter inh cell count 114 and HSV augment primary fold 0.93.
Screening CCOC(=O)c1c(O)c2ccccc2n(CC)c1=O returned PKD1 inh 1, RGS16-Gao 100, HSV augment inactive and HSV augment primary fold 0.99.
COc1ccccc1/C=C\C=N\n1c(-c2ccc(Cl)cc2Cl)n[nH]c1=S was read as PKD1 inh 5, INS promoter inh 58, GALR2 agonist 0.3, RGS16-Gao 10, HSV augment inactive, INS promoter inh cell count 87 and HSV augment primary fold 0.94.
Screening COc1cc(OC)cc(-c2nnc(SCc3cccnc3)o2)c1 returned PKD1 inh -3, INS promoter inh -33, GALR2 agonist -0.7, RGS16-Gao 105, HSV augment inactive, INS promoter inh cell count 152 and HSV augment primary fold 0.78.
CCN(CC)C(=O)C(=O)Nc1cc(C(F)(F)F)ccc1Cl was read as PKD1 inh 1, INS promoter inh 13, GALR2 agonist 1.3, RGS16-Gao 116, HSV augment inactive, INS promoter inh cell count 83 and HSV augment primary fold 0.64.
`Cc1cc(C)nc(NCC(O)COc2ccccc2C)n1` (stereo not given) gave PKD1 inh -2, GALR2 agonist -0.3, RGS16-Gao 134, HSV augment inactive and HSV augment primary fold 0.94.
COc1ccc(CNC(=O)CCS(=O)(=O)Cc2ccc(C)cc2)c(OC)c1 was read as PKD1 inh 1, INS promoter inh -31, RGS16-Gao 97, HSV augment inactive, INS promoter inh cell count 82 and HSV augment primary fold 0.89.
Cc1nccc(-c2cccc(NC(=O)c3ccccc3Cl)c2)n1 was read as RGS16-Gao 90, HSV augment inactive and HSV augment primary fold 0.96.
Screening CCOc1nc2ccccc2cc1/C=C/C(=O)O returned PKD1 inh 3, RGS16-Gao 97, HSV augment inactive and HSV augment primary fold 0.9.
Screening CC(=O)OCCOCn1cnn2c(=O)c(Br)c(C)nc12 returned RGS16-Gao 99, HSV augment inactive and HSV augment primary fold 0.99.

2 successive entries already listed, for reference:
`COc1cccc(Oc2ccc(C(F)(F)F)cc2N)c1` gave PKD1 inh 3, GALR2 agonist -0.6, RGS16-Gao 101, HSV augment inactive and HSV augment primary fold 1.
Screening C=C(C)c1cccc(C(C)(C)NC(=O)Nc2ccccc2OCC)c1 returned PKD1 inh 0, INS promoter inh -14, GALR2 agonist -1.0, RGS16-Gao 108, HSV augment inactive, INS promoter inh cell count 114 and HSV augment primary fold 0.93.

High-throughput results from PubChem BioAssay.
